Vif A3G: inhibitors of Vif binding to APOBEC3G peptide, primary screen, biochemical, TR-FRET, GST-Vif 1-94, biotin-A3G peptide, dose response retest (AID 1117319). TR-FRET GST-Vif / biotin-A3G peptide binding; higher % means a stronger effect; test concentration not given here; strong numbers were not always called active. Virion infectivity factor (Human immunodeficiency virus type 1 group M subtype B (isolate …. inhibition, %, or IC50 in µM where a hit was titrated. 260,000 tested, 0.57% active;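 active means above the screen mean plus three standard deviations and confirmed in dose response; inconclusive means results disagree or hit not tested in dose response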;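 further: Vif residues 1-94 fused to GST binding biotinylated APOBEC3G peptide 110-148; 0% = full assay without inhibitor and 100% = GST in place of GST-Vif; retest series ran down from 100 µM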
rRNA inh HTS: reduced GFP signal of wild-type E. coli, primary screen, bacterial rRNA inhibitor project, GFP/RFP fluorescence, OD600, single point; E. coli WT GFP vs humanized-ribosome RFP mutants, 24 h; hits give low values; DMSO median 0, no signal -100; GFP signal change (wild-type ribosome), % (no concentration beside the values); 350,000 tested, 1.6% active; AID 720706, 2013;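 active means significant combined selectivity score with lowered wild-type GFP, culture density cut under 30%, mutant RFP and density less affected; inactive means any of these conditions unmet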; further: one replicate is shown; some compounds called inactive have numbers as strong as hits
Ecoli growth: E. coli growth inhibition, primary screen, OD600; OD600 absorbance (test concentration not listed); 330,000 tested, 0.21% active; Escherichia coli growth, 23 h; hits give low values; AID 1053175, 2014;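 active means OD600 absorbance below the run mean of sample wells minus 3.6 SD, in any replicate, cut at about 0.56 in these data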;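 further: stock transfer was 300 nL into about 60 µL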
FGF22 binding: binders of human FGF22 protein, primary screen, FGF22 synaptogenesis inhibitor project, biophysical, thermal shift, single point; 340,000 tested, 1.5% active; Fibroblast growth factor 22 (Homo sapiens), Q9HCT0; calls only at 9.99 µM; AID 651658, 2012; recombinant FGF22 thermal shift, SYPRO orange fluorescence; percent of sucrose octasulfate shift, DMSO zero;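 active means melting point raised past a set limit in the mean and every replicate; inconclusive means no clear call; three in four hits are not shown here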
HNF4A DNA FP: change in binding of human HNF4A to DNA, primary screen, biochemical, fluorescence polarization, FITC-DNA. AID 1224865, 2016. Hepatocyte nuclear factor 4-alpha (Homo sapiens), P41235. activity change, % at 10 µM. 360,000 tested, 0.3% active. 1 h; in the data active means activity change above about 30%, passing the limit was not always enough;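 further: controls were the assay level and a saturating level of protein; the project sought stronger binding though the title names inhibitors; some compounds called inactive have numbers as strong as hits; positive values seem to mean higher polarization but the record does not say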
Target sequence (P41235 whole entry, looked up): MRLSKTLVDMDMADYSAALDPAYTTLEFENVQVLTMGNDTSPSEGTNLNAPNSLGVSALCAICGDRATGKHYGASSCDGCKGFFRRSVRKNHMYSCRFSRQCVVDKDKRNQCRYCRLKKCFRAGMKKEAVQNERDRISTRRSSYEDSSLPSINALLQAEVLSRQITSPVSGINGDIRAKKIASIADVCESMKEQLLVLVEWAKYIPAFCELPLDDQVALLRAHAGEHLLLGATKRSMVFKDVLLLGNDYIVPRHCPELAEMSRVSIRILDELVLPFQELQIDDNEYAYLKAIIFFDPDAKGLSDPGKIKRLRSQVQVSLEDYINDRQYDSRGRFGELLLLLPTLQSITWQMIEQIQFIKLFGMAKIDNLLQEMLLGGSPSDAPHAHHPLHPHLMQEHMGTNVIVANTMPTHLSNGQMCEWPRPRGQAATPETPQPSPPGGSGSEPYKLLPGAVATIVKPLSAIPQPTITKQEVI
ALR H2O2 inh: inhibitors of human ALR sulfhydryl oxidase, primary screen, biochemical, H2O2 detection, HRP-luminol luminescence, single point | 290,000 tested, 3.8% active | AID 485317, 2010 | inhibition, % (no concentration beside the values) | purified ALR, DTT oxidation | FAD-linked sulfhydryl oxidase ALR (Homo sapiens), P55789;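 active means mean and each replicate at 75% or more; inconclusive means only one of the two met; inactive means neither met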;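 further: stock transfer was 7.5 nL into about 7.5 µL; 0% = neutral wells and 100% = wells with inactivated enzyme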
MLL AF4-AF9 inh: inhibitors of AF4 peptide binding to AF9, primary screen, biochemical, AlphaScreen, biotin-AF4 peptide, FLAG-AF9, single point | Protein AF-9 (Homo sapiens), P42568 | inhibition, % at 10 µM | 350,000 tested, 0.47% active | AID 651704, 2012;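 active means every replicate reaching a set inhibition limit, whatever the replicate mean, cut at about 25% in these data; inconclusive means mean inhibition reaches that limit but some replicates miss it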;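 further: 0% = plate neutral control median and 100% = total signal loss; the record names both 10 and 1 µM as test concentration; the first replicate is given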
Target sequence (P42568 whole entry, looked up): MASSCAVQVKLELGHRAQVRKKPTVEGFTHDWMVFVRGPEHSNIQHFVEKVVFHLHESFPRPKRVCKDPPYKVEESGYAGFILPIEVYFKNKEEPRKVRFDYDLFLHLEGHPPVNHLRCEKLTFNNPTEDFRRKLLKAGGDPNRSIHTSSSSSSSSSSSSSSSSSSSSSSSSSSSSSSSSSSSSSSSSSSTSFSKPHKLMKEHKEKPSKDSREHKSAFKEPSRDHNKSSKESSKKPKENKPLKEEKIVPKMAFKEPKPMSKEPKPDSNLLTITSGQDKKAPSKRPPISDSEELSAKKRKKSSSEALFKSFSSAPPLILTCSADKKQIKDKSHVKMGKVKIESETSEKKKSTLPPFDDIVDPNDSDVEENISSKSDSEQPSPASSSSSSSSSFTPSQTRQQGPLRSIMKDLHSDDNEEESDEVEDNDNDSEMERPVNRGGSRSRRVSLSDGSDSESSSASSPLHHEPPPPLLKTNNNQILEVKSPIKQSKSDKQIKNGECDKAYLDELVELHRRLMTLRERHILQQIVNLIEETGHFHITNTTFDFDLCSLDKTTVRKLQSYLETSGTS
rRNA inh HTS OD600: recorded beside rRNA inh HTS, whose call it bears; OD600 change, %; measured here: OD600 growth;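 optical density of the mix in the first replicate; 0 = DMSO median and -100 = no signal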
rRNA inh HTS RFP: also measured in rRNA inh HTS; calls as there; RFP signal change, %; measured here: RFP humanized mutant strains;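 first replicate; 0 = DMSO median and -100 = no signal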
An asterisk follows results filed as active; i = inactive; ? = inconclusive; · = not tested or not shown. These rows are one share of the data. The share of hits here may be higher or lower than overall.

SMILES	Vif A3G	rRNA inh HTS	rRNA inh HTS OD600	rRNA inh HTS RFP	Ecoli growth	FGF22 binding	HNF4A DNA FP	ALR H2O2 inh	MLL AF4-AF9 inh
O=C(NC(=O)c1ccccc1)Nc1ccc(Cl)cn1	·	12	18	-2.4	0.68	i	4.7	-3	0.3
CCCN(C)C[C@@H]1Oc2cc(-c3ccc(OC)cc3)ccc2S(=O)(=O)N([C@H](C)CO)C[C@@H]1C	·	3	-6	-2.2	·	i	·	·	2.2
O=C(COc1ccccc1)NC(=S)Nc1ccc2c(c1)Cc1ccccc1-2	·	0	0	1.8	0.76	i	2.4	-11	1.4
CCC(=O)c1ccc(OCC(O)CN2CCCCC2)cc1 (centres undefined)	?	·	·	·	0.69	·	1.1	-17	·
O=C(Nc1ccc(S(=O)(=O)Nc2ncccn2)cc1)c1nn(Cc2ccccc2)c(=O)c2ccccc12	·	6	-1	9.1	0.64	i	-1.5	-3	-5.0
Cc1cc(C(=O)NNC(=O)c2ccc(S(=O)(=O)N(C)C)cc2)c(C)o1	-3%	-1	12	-1.4	0.68	i	1.6	-64	-2.2
CC(Oc1ccc(Br)cc1)C(=O)NNC(=O)CCN1CCN(c2ccccc2)CC1 (centres undefined)	2%	3	0	0.6	0.67	i	-0.4	95*	11
Cc1cc(S(=O)(=O)NCc2ccccc2)ccc1OCC(=O)NCc1ccncc1	-2%	2	4	-1.2	0.68	i	3.3	1	0.4
COc1cccc(N2CCN(c3ccc4nnc(CCC(=O)Nc5ccc(OC)c(OC)c5)n4n3)CC2)c1	·	4	-3	-2.3	0.63	i	1.7	-45	5.6
Cc1noc(C)c1S(=O)(=O)Nc1ccc2c(c1)C(=O)N([C@H](C)CO)C[C@H](C)[C@H](CN(C)C(=O)Nc1ccc3c(c1)OCO3)OCCCC[C@@H](C)O2	·	3	0	-3.0	·	i	·	·	-0.1
COc1ccc(CCNC(=O)c2cc3c(=O)n4cccc(C)c4nc3n(CC3CCCO3)c2=N)cc1 (centres undefined)	-5%	6	-2	-4.6	0.64	i	10.0	-9	-5.9
NS(=O)(=O)c1ccc(CCNC(=O)/C=C/c2ccc(S(=O)(=O)N3CCOCC3)cc2)cc1	·	0	1	-1.0	0.67	i	3.4	·	0.9
Cc1ccc(-c2cc(N)n3nc(-c4ccc(C)cc4)cc3n2)cc1	-4%	·	·	·	0.74	·	2.6	7	·
COC(=O)c1ccc(C(=O)OC)c(NC(=S)N2CCN(c3ccccc3F)CC2)c1	7%	·	·	·	0.73	·	-0.3	-2	·
CCOC(=O)C1(C(=O)OCC)C(c2ccccc2)CC(O)N1C(C)=O (centres undefined)	0%	7	13	0.0	0.63	i	0.1	·	1.6
Cc1cccc(C(=O)Nc2ccc(Oc3cnccn3)cc2)c1	-8%	9	22	0.1	0.68	i	0.2	3	0.4
O=C(CSc1nc2c(c(=O)n1-c1ccc(F)cc1)SCC2)Nc1ccc2c(c1)OCO2	-8%	·	·	·	0.73	·	-2.4	25	·
C[C@@H]1CN([C@@H](C)CO)S(=O)(=O)c2ccc(/C=C/c3ccccc3)cc2O[C@H]1CN(C)C(=O)C1CC1	·	-11	-26	-1.7	·	i	·	·	7.8
COc1ccc(NC(=O)CCNC(=O)C2CCN(S(=O)(=O)c3ccc(F)cc3)CC2)cc1OC	·	8	12	-0.7	0.7	i	-1.9	-34	-8.5
Cc1ccc(S(=O)(=O)N(CC(=O)N2CCOCC2)c2ccc(Br)cc2)cc1	·	1	0	-3.5	0.67	i	2.1	-2	-1.0
COc1ccc(N(CC(=O)N2CC=C(c3ccccc3)CC2)S(=O)(=O)c2c(C)noc2C)cc1	4%	-1	-8	-1.3	0.73	i	1.3	-7	-5.8
Cc1ccc(NC(=S)NCc2ccccc2)cc1[N+](=O)[O-]	-1%	-54	-81	-29	0.54	i	-4.3	·	2.1
CCOc1cc(CNCCCN2CCOCC2)cc(Br)c1OCC(=O)Nc1cccc(C(F)(F)F)c1	-2%	·	·	·	0.59	·	-0.8	-4	·
COc1ccccc1NC(=O)CN1C(=O)C(C)Oc2ccccc21 (centres undefined)	-3%	·	·	·	0.68	·	2.5	-4	·
O=C(Nc1ccc(F)cc1)N[C@H]1C=C[C@@H](CC(=O)N2CCCCC2)O[C@@H]1CO	·	0	1	1.9	·	i	·	·	-1.2

The list goes on; the last two above are carried over.
SMILES	Vif A3G	rRNA inh HTS	rRNA inh HTS OD600	rRNA inh HTS RFP	Ecoli growth	FGF22 binding	HNF4A DNA FP	ALR H2O2 inh	MLL AF4-AF9 inh
COc1ccccc1NC(=O)CN1C(=O)C(C)Oc2ccccc21 (centres undefined)	-3%	·	·	·	0.68	·	2.5	-4	·
O=C(Nc1ccc(F)cc1)N[C@H]1C=C[C@@H](CC(=O)N2CCCCC2)O[C@@H]1CO	·	0	1	1.9	·	i	·	·	-1.2
Cc1occc1C(=O)NNC(=O)Nc1ccc(F)cc1F	-1%	·	·	·	0.65	·	-0.2	17	·
CCCCC(=O)Nc1ccc(C(=O)Nc2cccnc2)cc1	-2%	·	·	·	0.69	·	-0.4	-5	·
COC(=O)c1ccc(NC(=O)C2CCN(C(=O)c3cc(OC)c(OC)c(OC)c3)CC2)cc1	0%	2	7	18	0.73	·	2.2	0	·
COc1ccc(C(=O)Nc2cc(Cl)ccc2C(=O)O)cc1	·	-48	-72	-15	0.69	·	-5.0	17	-0.1
Cc1ccsc1C(=O)N1CCC1(C)C(=O)Nc1cccc(C#N)c1 (centres undefined)	·	·	·	·	·	i	2.6	·	1.1
C[C@@H]1CN([C@H](C)CO)C(=O)CCCn2nncc2CO[C@@H]1CN(C)C(=O)CCCN(C)C	·	0	8	-1.5	·	i	·	·	-2.1
C[C@@H]1CN([C@@H](C)CO)C(=O)c2cc(NC(=O)CCCCCC(=O)Nc3ccccc3N)ccc2O[C@H]1CN(C)C(=O)Nc1cccc2ccccc12	·	-3	-2	-0.2	·	i	·	·	-3.6
N#Cc1cccc(-c2ccc([C@@H]3[C@@H](CO)N4CCCCN(C(=O)Nc5ccccc5)C[C@@H]34)cc2)c1	·	-24	-20	8.8	·	i	·	·	-3.3
Cc1cccc(NC(=O)NC(=S)NC(=O)c2ccccc2)c1	1%	·	·	·	·	·	-0.5	46	·
CCc1cc2c(=O)n(CC(=O)NCCc3ccc(OC)c(OC)c3)cnc2s1	·	9	8	1.1	0.66	i	-2.9	3	2.2
O=S(=O)(NCCN1CCN(S(=O)(=O)c2ccccc2F)CC1)c1ccccc1F	1%	5	-6	0.2	0.72	i	3.6	-13	0.5
c1ccc(-c2ccc3ncccc3n2)cc1	·	-9	4	1.5	·	i	1.8	·	1.3
O=C(COc1ccc2c(c1)OCO2)Nc1ccc2c(c1)oc1ccccc12	-3%	·	·	·	0.69	·	0.8	-4	·
O=C(NCCCn1ncc2ccccc21)c1cc(COc2c(F)cccc2F)on1	-3%	-20	-35	-0.4	0.67	i	-2.3	-5	-2.5
CC(O)Cc1nsc(NC(=O)c2cccs2)n1 (centres undefined)	1%	9	6	0.4	0.69	i	-0.5	0	8.7
C[C@H]1CN([C@@H](C)CO)C(=O)Cc2cc(NC(=O)Cc3cn(C)c4ccccc34)ccc2O[C@@H]1CN(C)CC1CC1	·	1	3	-1.1	·	i	·	·	13
O=C(C[C@@H]1C=C[C@H](NS(=O)(=O)c2ccccc2F)[C@H](CO)O1)NCCCN1CCOCC1	·	1	1	0.4	·	i	·	·	-7.9
COc1cc(/C=N/NC(=O)C(=O)NCc2ccco2)cc(Br)c1O	·	9	-1	-0.1	·	i	1.8	25	4.9
Cc1ccc(N(CC(=O)NCC2CCCO2)C(=O)Cn2nnc(-c3cccs3)n2)cc1 (centres undefined)	4%	-9	-1	2.9	0.67	i	1.7	-18	-0.3
CCCCOc1cc(NCc2ccccc2)c2ncn(C(C)C)c2c1	·	2	-13	6.7	0.66	i	0.8	-15	9.5
CCOC(=O)c1nnc2cc(-c3ccc(Br)cc3)nn2c1C	2%	·	·	·	0.7	·	3.0	-4	·
CC(C)C(=O)Nc1ccc(C(=O)NNC(=O)CCCOc2ccc(Cl)cc2Cl)cc1	-1%	·	·	·	0.78	·	-4.2	-1	·
CCN1CCN(S(=O)(=O)c2ccc(Cl)c(C(=O)N(C)C3CCCCC3)c2)CC1	·	8	3	5.9	·	i	11	·	26*
CCOc1cccc(C(=O)NC(=S)NCc2cccnc2)c1	3%	·	·	·	0.68	·	1.9	·	·
CC1C(=O)N2CCCc3cc(S(=O)(=O)N(C)Cc4ccccc4)cc1c32 (centres undefined)	·	-3	-11	-4.0	0.71	i	-1.0	·	-7.1

The list goes on:
SMILES	Vif A3G	rRNA inh HTS	rRNA inh HTS OD600	rRNA inh HTS RFP	Ecoli growth	FGF22 binding	HNF4A DNA FP	ALR H2O2 inh	MLL AF4-AF9 inh
Cc1cc(NS(=O)(=O)c2ccc(NC(=S)NC(=O)c3ccc(Cl)cc3Cl)cc2)no1	1%	·	·	·	0.75	·	1.8	67	·
CC(=O)c1ccccc1OCCCOc1cccc2cccnc12	·	-16	-17	-1.5	0.7	i	1.5	·	-13
Cc1cccc(NC(=O)CCNS(=O)(=O)c2cccc3nonc23)c1C	-8%	8	3	1.1	0.64	i	2.8	-2	0.2
Cc1ccc(NC(=O)COc2coc(CN3CCN(c4ccccc4)CC3)cc2=O)cc1	·	2	7	-2.3	0.73	i	2.7	26	-1.5
COc1ccc2c(c1)c(C(=O)N/N=C/c1ccc(O)c(O)c1)c(C)n2C	?	·	·	·	·	·	-4.6	100*	·
COC(=O)C1=CN(c2ccc(OC)cc2)C(N)=C(C#N)C1c1ccccc1F (centres undefined)	·	-21	-29	-11	·	i	1.3	·	0.5
Cc1nn(CCOc2ccccc2)c(=O)n1-c1ccccc1	?	·	·	·	0.72	·	1.4	1	·
C[C@H]1CN([C@@H](C)CO)C(=O)c2c(c3ccccc3n2C)-c2ccccc2CO[C@@H]1CN(C)S(=O)(=O)c1cn(C)cn1	·	3	5	-3.0	·	i	·	·	0.6
COC(=O)c1ccc(Cl)c(S(=O)(=O)N2CCCC2)c1	·	-1	-2	-0.9	0.72	i	1.3	-14	-0.7
COc1ccccc1C#Cc1ccc2c(c1)O[C@H](CN(C)Cc1ccncc1)[C@@H](C)CN([C@@H](C)CO)S2(=O)=O	·	-7	-5	8.0	·	i	·	·	0.7
Cc1cc(Br)ccc1OCc1nnc(-c2ccccc2)o1	·	2	-1	2.2	0.7	i	0.7	·	-5.1
CCC(c1nnnn1CS(=O)(=O)c1ccc(C)cc1)N1CCC(C(N)=O)CC1 (centres undefined)	·	3	-1	-0.6	0.66	i	2.0	-6	-0.7
O=C(C[C@H]1C=C[C@H](NS(=O)(=O)c2ccccc2)[C@H](CO)O1)NCc1ccccc1F	·	-2	0	-1.7	·	i	·	·	-1.9

Part of the list above, as comma-separated lines:
SMILES,Vif A3G,rRNA inh HTS,rRNA inh HTS OD600,rRNA inh HTS RFP,Ecoli growth,FGF22 binding,HNF4A DNA FP,ALR H2O2 inh,MLL AF4-AF9 inh
Cc1cc(C(=O)NNC(=O)c2ccc(S(=O)(=O)N(C)C)cc2)c(C)o1,-3%,-1,12,-1.4,0.68,i,1.6,-64,-2.2
COc1cc(/C=N/NC(=O)C(=O)NCc2ccco2)cc(Br)c1O,·,9,-1,-0.1,·,i,1.8,25,4.9

Bioassay records from PubChem.
